Screening results deposited in PubChem BioAssay by National Center for Advancing Translational Sciences (NCATS).
A647 autofl: compound fluoresces in the A647 spectral region; Compound fluorescence, A647 channel (570/671 nm), Tris buffer; max dye-equivalent concentration, M; 59,000 tested, under 10 active; AID 592; active means above 1 µM dye equivalent; inconclusive means 0.1 to 1 µM; inactive means 0.1 µM or less;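 further: values scaled relative to a standard on each plate; highest value over a series up to 38 µM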
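Compound fluorescence was measured in 100 mM Tris buffer, pH 8.0, after 15 min at room temperature, using 570 nm excitation and 671 nm emission filters. Signal was normalized to a per-plate Alexa 647 standard curve and expressed as dye-equivalent concentration at each compound concentration.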
TSHR ag: activates the human thyroid stimulating hormone receptor; P16473; HEK293-CNG-TSHR cells (CNG channel as cAMP sensor), membrane potential dye, cAMP; Potency, µM (doses to about 57.1 µM), for the others: top-dose activation, hits mostly activators; 73,000 tested, 0.48% active; AID 926; active = well fitted activation curve of enough size with the parental cells flat; inconclusive = any curve in the parental cells; inactive = parental cells flat and receptor cells flat or falling; further: potency means the concentration at half of the fitted maximal effect; % of control where 0% means no effect; weak receptor curves with flat parental cells got no call and are not listed
Target sequence (P16473 whole entry, looked up): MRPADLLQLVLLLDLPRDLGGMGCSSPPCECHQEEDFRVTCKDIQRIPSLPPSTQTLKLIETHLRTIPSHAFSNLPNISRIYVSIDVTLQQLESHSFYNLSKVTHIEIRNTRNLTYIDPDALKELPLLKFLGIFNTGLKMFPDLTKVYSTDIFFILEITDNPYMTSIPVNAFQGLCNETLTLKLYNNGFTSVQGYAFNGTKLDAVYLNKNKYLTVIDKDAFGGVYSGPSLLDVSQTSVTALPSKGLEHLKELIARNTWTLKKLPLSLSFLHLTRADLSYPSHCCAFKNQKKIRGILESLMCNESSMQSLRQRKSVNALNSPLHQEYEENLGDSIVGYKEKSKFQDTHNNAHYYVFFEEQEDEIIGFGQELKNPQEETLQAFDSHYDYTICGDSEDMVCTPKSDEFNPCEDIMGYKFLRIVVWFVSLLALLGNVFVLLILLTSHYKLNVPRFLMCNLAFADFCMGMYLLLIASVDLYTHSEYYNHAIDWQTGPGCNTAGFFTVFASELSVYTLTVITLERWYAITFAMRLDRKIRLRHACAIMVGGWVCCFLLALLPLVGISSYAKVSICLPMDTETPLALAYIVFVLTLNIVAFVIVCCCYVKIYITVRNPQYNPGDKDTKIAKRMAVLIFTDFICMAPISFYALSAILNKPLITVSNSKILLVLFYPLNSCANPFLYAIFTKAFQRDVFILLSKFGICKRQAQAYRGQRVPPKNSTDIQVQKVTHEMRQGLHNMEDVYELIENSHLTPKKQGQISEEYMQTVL
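cAMP rise detected as CNG-channel membrane depolarization by fluorescent dye (emission 590 nm), 30 min after compound, following 60 min dye loading containing 100 uM RO 20-1724 at room temperature. Cells: TSHR/CNG HEK 293, with parental CNG HEK 293 as control.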
AID923: qHTS Assay for Allosteric/Competitive Inhibitors of Caspase-1: Spectroscopic Profiling in AFC Spectral Region; compound fluorescence, AFC spectral region (405/520 nm); almost no hit is shown here; Potency, µM (highest dose often 57.5 µM), for inactives: at the top dose fluorescence increase, usual class: activators; AID 923, 2007; 75,000 tested, 1.1% active; active means well fitted activation curve with a large enough effect; inconclusive means small, poorly fitted or top-dose-only effect;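 further: potency means the concentration at half of the fitted maximal effect; 0% is about no effect; scaled to a free AFC standard on each plate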
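Baseline compound fluorescence (AFC region, 405 nm ex/520 nm em) taken from the intercept of kinetic reads with 50 nM caspase-1 and 5 uM Ac-WEHD-AFC; normalized to an on-plate AFC standard curve; compounds titrated up to 57 uM.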
Resorufin autofl: compound fluoresces in the resorufin spectral region; max dye-equivalent concentration, M; AID 588; 59,000 tested, 0.04% active; Compound fluorescence, resorufin region 547/598 nm, buffer; hits give high values; active = above 10 nM dye equivalent; inconclusive = 1 to 10 nM; inactive = 1 nM or less; a few of its hits are not listed in these tables; further: highest value over a series up to 38 µM
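Dye-equivalent concentration values derive from comparing each well's 547/598 nm fluorescence against resorufin standards included on every plate. Incubation was 15 min at room temperature in 100 mM Tris, pH 8.0.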
A488 autofl: compound autofluorescence in A488 spectral region. compound autofluorescence, A488 spectral region, dye equivalency; hits give high values. max dye equivalency, M. 59,000 tested, 0.1% active. AID 591; active = above 10 nM dye equivalent; inconclusive = 1 to 10 nM; inactive = 1 nM or less; about half of its hits are not listed in these tables;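 further: highest value over a series up to 38 µM; compound alone in buffer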
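Readout is A488 dye-equivalent concentration, calibrated by a per-plate six-point Alexa 488 series. Compounds in 100 mM Tris buffer pH 8.0 were incubated 15 min at room temperature. Plates were imaged using 480 nm excitation/540 nm emission filters.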
* = called active by the depositor; i = inactive; ? = inconclusive; nt = not tested or not shown; [ ] = dose if it differs, or a comment. The list is partial, so the mix of outcomes need not match the whole.

#	compound	A647 autofl	TSHR ag	AID923	Resorufin autofl	A488 autofl
1	Cc1cccc(N2C(=O)C3C4C=CC(C4)C3C2=O)c1 (centres undefined)	1e-09	-3.0%	-0.3%	i	i
2	CCCCCCSC1=C(C#N)C(c2ccccc2)CC(=O)N1 (centres undefined)	7.85e-08	nt	nt	i	i
3	COc1ccc(N2CCN(C(=O)CSc3nnc(-c4cccnc4)n3-c3ccccc3)CC2)cc1	2.49e-08	-3.7%	-0.8%	i	i
4	CCCC(=O)c1ccc(N2CCN(C(=O)c3ccccc3Br)CC2)c(F)c1	nt	?	0.7%	nt	nt
5	c1ccc(-n2ncc3c2ncn2nnnc32)cc1	1e-09	-0.4%	-0.2%	i	i
6	CC(C)NC(=O)N1CCC2(CC1)CCN(C(=O)c1csnn1)CC2	1e-09	2.2%	1.3%	i	i
7	Cc1nnc(SCSc2nnc(C)s2)s1	2.49e-08	15.6%	-1.1%	i	i
8	CCN1C(=O)C(O)(CC(=O)c2ccc3c(c2)OCCO3)c2ccccc21 (centres undefined)	nt	18.1%	-3.7%	nt	nt
9	CCOC(=O)c1oc2ccc3c(c2c1C)C(=O)CC1(CCN(C(=O)OCC)CC1)O3	nt	12.3%	0.7%	nt	nt
10	COCCn1nnnc1C(c1ccccc1OC)N1CCc2ccccc2C1 (centres undefined)	1.1e-08	21.7%	1.2%	i	i
11	Cc1ccc(N2C(=O)SC(N(CC(=O)O)c3cccc(C)c3)C2=O)cc1 (centres undefined)	1.41e-08	-3.7%	2.2%	i	i
12	CCCC(=O)Nc1cnc(NC(=O)c2cccc(F)c2)cc1C	5.36e-08	-6.8%	1.2%	i	i
13	Cc1ccc(C)c(Cn2cnc3c(nnn3-c3ccc(F)cc3)c2=O)c1	1e-09	?	-1.3%	i	i
14	COC(=O)C1=C(C)NC(C)=C(C(=O)OC)C1c1ccc(NC(C)=O)cc1	4.65e-08	12.8%	4.5%	i	i
15	CN1CCc2c(sc3ncn4nc(-c5ccccc5O)nc4c23)C1	2e-09	nt	nt	i	i
16	Cc1noc(C)c1COC(=O)c1cc(=O)[nH]c2ccccc12	8.5e-09	10.1%	-0.8%	i	i
17	COc1cc(-c2c(C#N)c(N)nc3c2CCCC3)ccc1O	5.3e-09	4.5%	0.4%	i	i
18	Cc1noc(C)c1-c1cc(Nc2ccccc2)ncn1	4.11e-08	8.5%	-0.3%	i	i
19	COc1ccccc1CNc1cc(-c2ccccc2CN(C)C)ncn1	4.08e-08	?	2.7%	i	i
20	COc1cc(C2c3c(oc4c(C)cc(C)cc4c3=O)C(=O)N2Cc2cccnc2)cc(OC)c1OC (centres undefined)	4.1e-09	1.0%	-4.6%	i	i
21	Cc1cc(C)c(-n2c(O)c(C=NCCN3CCOCC3)c(=O)[nH]c2=O)c(C)c1	1e-09	nt	nt	i	i
22	CCc1nc(SCC(=O)Nc2ccc3c(c2)OCCO3)c2oc3ccccc3c2n1	2.55e-08	nt	0.1%	i	i
23	O=C(CN(c1ccc(F)cc1)S(=O)(=O)c1ccc2c(c1)OCCO2)NCC1CCCO1 (centres undefined)	2.7e-09	14.7%	-2.5%	i	i
24	Cc1sc2ncnc(NCC(c3ccco3)N(C)C)c2c1C (centres undefined)	1e-09	10.9%	-1.2%	i	i
25	O=c1oc2ccccc2c2c1ncn2CCN1CCOCC1	nt	0.0%	-1.3%	nt	nt
26	C=CCOc1c(OC)cc(Cl)cc1C1NC(=O)NC(C)=C1C(C)=O (centres undefined)	6.62e-08	11.3%	-0.5%	i	i
27	COc1ccccc1N=C1SC(C)CN1C(=O)C1CCC1 (centres undefined)	3.9e-09	?	-1.1%	i	i
28	O=C(Nc1ccc(F)cc1F)c1cc(-c2ccco2)on1	1.05e-08	5.1%	-5.8%	i	i
29	COc1cc(CNc2ccccc2SC)ccc1O	nt	4.0%[11.4 µM]	0.3%	nt	nt
30	O=C(c1c(F)cccc1F)N1CCC(O)(c2cccnc2)CC1	3.6e-08	-2.7%	0.6%	i	i
31	Cc1ccc(N2C(=O)c3ccccc3C2=O)cc1Cl	2.85e-08	-20.3%	0.1%	i	i
32	Cc1ccc(-c2nnc(N3CCCCC3)c3ccccc23)cc1S(=O)(=O)N1CCN(C)CC1	nt	?	0.0%	nt	nt
33	COc1ccc(C2CC(=O)c3cnc(N4CCN(Cc5ccccc5)CC4)nc3C2)cc1 (centres undefined)	1e-09	?	3.5%	i	i
34	COc1cccc(C(=O)NC(C)C(c2cccs2)N2CCN(C)CC2)c1 (centres undefined)	1.83e-08	21.4%	4.6%	i	i
35	CCN(CC)c1ccc(NC(=O)C2CCCN(S(=O)(=O)c3cnc[nH]3)C2)c(C)c1 (centres undefined)	nt	21.7%	-2.5%	nt	nt
36	COCC(=O)NC1CC2CCCC(C1)N2Cc1ccccc1 (centres undefined)	2.6e-09	-2.1%	-1.4%	i	i
37	CC(=O)SCC(=O)N=c1sc2cc(F)ccc2n1C	2.34e-08	-34.0%[inhibitor]	1.2%	i	i
38	CCc1cc2c(NCCO)ncnc2s1	1e-09	nt	2.6%	i	i
39	Cc1ccc(C)c(Cn2nnc3c(=O)[nH]c(C4CCCN(C(=O)C5CCC5)C4)nc32)c1 (centres undefined)	1e-09	?	1.4%	i	i
40	OCc1nc2ccccc2n1CCCOc1ccc(Br)cc1	5.1e-09	18.6%	-1.3%	i	i
41	Cc1ccc(Cc2c(C)nc3nc(SCC(=O)NCc4ccco4)nn3c2C)cc1	2.53e-08	?	2.3%	i	i
42	CN(CCC#N)C(=O)CSc1ncnc2sc(-c3ccccc3)cc12	1e-09	5.8%	5.1%	i	i
43	COc1cccc(NC(=O)CSc2nnc(Cc3cccn3C)n2-c2ccc(F)cc2)c1	nt	4.2%	-2.5%	nt	nt
44	COc1cccc2cc(C(=O)n3ccc(C)n3)c(=O)oc12	1e-09	-17.1%	0.6%	i	i
45	O=C(O)C1CCCN1S(=O)(=O)c1ccc(Cl)c(Cl)c1 (centres undefined)	nt	2.1%	0.4%	nt	nt
46	Nc1nc(N)c(N=Nc2ccc(C(=O)O)c(O)c2)c(N)n1	1e-09	3.1%[11.4 µM]	4.4%[11.5 µM]	i	i
47	Cn1cccc1Cc1nnc(SCC(=O)Nc2ccc3c(c2)OCO3)n1CCc1ccccc1	nt	10.7%	-5.8%	nt	nt
48	CC(C)c1c(O)nc(SCCN(C)C)[nH]c1=O	1.65e-08	-0.1%	-0.2%	i	i
49	COc1ccc(CCNS(=O)(=O)c2cccc(S(=O)(=O)N3CCCC3)c2)cc1OC	3.73e-08	9.8%	-1.2%	i	i
50	COC(=O)c1cccc(NC(=O)CSc2ncn[nH]2)c1	2.28e-08	-9.1%	1.3%	i	i
51	CC(=O)OC[C@H]1O[C@@H](O/N=C(\C)CCN2CCCCc3nc(C)c(C)cc32)[C@H](OC(C)=O)[C@@H](OC(C)=O)[C@H]1OC(C)=O	nt	-0.2%[11.4 µM]	-0.3%[11.5 µM]	nt	nt
52	Cc1ccc2[nH]c(=O)c(CN(Cc3ccccc3)Cc3nnnn3C3CCCC3)cc2c1	1e-09	?	16.5%	i	i
53	COC(=O)c1ccccc1NC(=O)Nc1cccs1	2e-08	-4.3%	-0.2%	i	i
54	NS(=O)(=O)c1ccc(NC(=O)c2ccccc2C(=O)N2CCCCC2)cc1	6.28e-08	-1.9%	1.0%	i	i
55	C=C(Cl)COc1ccc2c(CC)cc(=O)oc2c1	nt	?	2.2%	nt	nt
56	COC(=O)c1cccc(NCN2C(=O)c3ccccc3C2=O)c1	nt	2.0%	0.6%	nt	nt
57	Fc1ccc(C(c2ccc(F)cc2)N2CCN(C/C=C/c3ccccc3)CC2)cc1	1.2e-09	nt	0.5%	i	i
58	CCOc1ccc(N2CCn3c2nc2c3c(=O)n(CCc3ccccc3)c(=O)n2C)cc1	1e-09	-8.6%	1.5%	i	i
59	O=C(O)c1cccc(-n2cccc2/C=N/O)c1	1.12e-08	0.4%	-1.7%	i	i
60	CCOc1ccc(OCC)c(S(=O)(=O)NCc2ccc3c(c2)OCO3)c1	nt	18.6%	-0.2%	nt	nt

Going on with the list.
#	compound	A647 autofl	TSHR ag	AID923	Resorufin autofl	A488 autofl
61	CC(C)CSc1nc2c(c(=O)[nH]c(=O)n2C)n1CCc1ccccc1	5.9e-09	?	0.2%	i	i
62	N#Cc1ccc(CN2CC3(CCN(C(=O)c4cccc(F)c4)CC3)C2)cc1	1e-09	13.2%	4.1%	i	i
63	C(=NC12CN3CN(CN(C3)C1)C2)c1ccc2c(c1)OCO2	1.4e-09	-3.3%	0.6%	i	i
64	O=C(NCc1n[nH]c(=S)n1-c1ccc(F)cc1)c1ccc(S(=O)(=O)N2CCCC2)cc1	2.4e-09	-1.8%[11.4 µM]	-1.2%	i	i
65	CCc1ccc(OCC(=O)Nc2ncc3c(n2)CC(C)(C)CC3=O)cc1	1e-09	?	1.4%	i	i
66	CCc1ccc(-c2nc(-c3ccncc3)no2)cc1	nt	18.8%[11.4 µM]	0.4%	nt	nt
67	CCCn1c(=O)c2ccccc2n2c(SCCOc3ccc(Cl)cc3)nnc12	2.4e-09	?	-0.1%	i	i
68	COc1ccc(NC(=O)C2CCN(C(=O)c3ccccc3)CC2)c(OC)c1	nt	-9.5%	-1.5%	nt	nt
69	COc1ccc(-c2cc(C(=O)NCc3cccnc3)no2)cc1	6.2e-09	-3.6%	0.1%	i	i
70	CC1CCCC(C)N1C(=O)CSc1nc2ncnc(N)c2[nH]1 (centres undefined)	3.8e-09	-0.6%	-1.4%	i	i
71	CCOc1cc(C2C(C#N)=C(N)SC(N)=C2C#N)ccc1OCCN1CCOCC1	1e-09	8.3%	0.0%	i	i
72	O=C(CN(C(=O)CNS(=O)(=O)c1ccccc1)c1ccc2c(c1)OCCO2)NCc1ccco1	9.7e-09	11.9%	-1.9%	i	i
73	CSc1ncccc1C(=O)OCC(=O)NC(=O)NCCC(C)C	5.2e-09	1.9%	-0.9%	i	i
74	CCCN(CCC)C(=O)COc1cc(=O)n(CC)c2ccccc12	nt	9.8%	-2.7%	nt	nt
75	O=C1CSc2ccccc2N1Cc1ccc(F)cc1	2.15e-08	nt	-0.9%	i	i
76	COc1ccc(-c2nnc(SCc3nnc(-c4ccccc4)o3)n2C)cc1OC	5.04e-08	10.6%	0.2%	i	i
77	CCNC(=O)C1CC(=O)N(Cc2ccc(F)cc2)C(=Nc2ccc(OC)cc2)S1 (centres undefined)	1e-09	16.7%	-0.8%	i	i
78	O=C(c1ccccc1F)N(Cc1ccccc1)C1CCS(=O)(=O)C1 (centres undefined)	3e-08	3.2%	-0.2%	i	i
79	C[C@]12C=CC(=O)C=C1CC[C@@H]1[C@@H]2C(=O)C[C@@]2(C)[C@H]1CC[C@]2(O)C(=O)CO	nt	0.5%	0.6%	nt	nt
80	Cc1cc(=O)oc(C)c1C(=O)NCc1ccc(F)cc1	1.98e-08	nt	-1.6%	i	i
81	COc1cccc2[nH]c(-c3ccccn3)nc12	8e-09	-8.4%[11.4 µM]	5.2%[11.5 µM]	i	i
82	CS(=O)(=O)N(CC(=O)NCc1ccccn1)Cc1ccc(Cl)cc1	1.92e-08	nt	0.9%	i	i
83	CC[C@H](C)C(=O)O[C@@H]1CCC=C2C=C[C@H](C)[C@@H](CC[C@H]3C[C@@H](O)CC(=O)O3)[C@H]21	1e-09	37.2%	nt	i	i
84	Cc1cccc(NC(=O)c2cc(N3CCOCC3)nc3ccccc23)c1	1e-09	nt	nt	i	i
